# Mtb MenB inh: Mtb MenB enzyme inhibition; AID 540299; actives 0.43% (n = 100,000); MenB enzyme assay, absorbance read-out; some hits fall short of the stated cut; inhibition, %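 (about 12 µg/mL by stock and volumes)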; P9WNP5;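 active means mean of two replicates above 30%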;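 further: 0% = no compound and 100% = wells with inactive enzyme; the first replicate is given; strong numbers were not always called active; inactives centre near -10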
# Target sequence (P9WNP5 whole entry, looked up): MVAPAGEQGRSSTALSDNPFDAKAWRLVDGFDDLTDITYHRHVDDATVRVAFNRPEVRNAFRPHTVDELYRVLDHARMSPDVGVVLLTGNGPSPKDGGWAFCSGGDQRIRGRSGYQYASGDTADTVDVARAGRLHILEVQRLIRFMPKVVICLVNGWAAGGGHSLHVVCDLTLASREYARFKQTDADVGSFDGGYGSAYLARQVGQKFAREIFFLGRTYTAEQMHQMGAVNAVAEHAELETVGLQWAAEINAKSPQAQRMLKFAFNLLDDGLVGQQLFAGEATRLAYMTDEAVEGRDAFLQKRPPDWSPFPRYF
# Polio RdRp inh: poliovirus RNA polymerase inhibition; % elongation, % (compound at 16.7 µg/mL); poliovirus polymerase elongation, fluorescence polarization; hits give low values; P03300; actives 0.66% (n = 150,000); in the data active means % elongation below about 90%; further: some results filed as inactive read as strong as hits
# MbtI inh: inhibitors of Mycobacterium tuberculosis siderophore enzyme MbtI; purified MbtI enzyme, fluorescence intensity read-out; P9WFX0; AID 493033; inhibition, %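 (about 17 µg/mL by stock and volumes)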; actives 0.89% (n = 100,000);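 active means above 50% in both replicates, above 80% if mildly self-fluorescent; inactive means the rest, strongly fluorescent compounds included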;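 further: 0% = mean of negative and 100% = mean of positive controls; one replicate is shown; some compounds called inactive have numbers as strong as hits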
# Target sequence (P9WFX0 whole entry, looked up): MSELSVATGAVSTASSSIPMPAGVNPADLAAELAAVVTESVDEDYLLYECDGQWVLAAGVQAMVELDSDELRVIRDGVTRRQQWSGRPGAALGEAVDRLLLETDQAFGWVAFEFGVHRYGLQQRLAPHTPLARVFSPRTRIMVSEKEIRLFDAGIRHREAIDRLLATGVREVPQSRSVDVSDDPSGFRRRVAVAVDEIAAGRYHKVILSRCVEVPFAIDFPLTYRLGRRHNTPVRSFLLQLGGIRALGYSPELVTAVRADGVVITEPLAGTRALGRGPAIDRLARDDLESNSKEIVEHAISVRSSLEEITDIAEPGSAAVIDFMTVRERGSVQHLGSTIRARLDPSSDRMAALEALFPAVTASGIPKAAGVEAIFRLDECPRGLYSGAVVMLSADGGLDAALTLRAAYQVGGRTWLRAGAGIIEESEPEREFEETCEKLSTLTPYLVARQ
# Polio RdRp inh intensity: further read-out of Polio RdRp inh, marked with its call; % elongation; measured here: total intensity read-out; formula for this scale not given here;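 total fluorescence in place of polarization; lower means less elongation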
# * hit, by the source's call; nt = not tested or not shown; & = joins results of further samples.
SMILES,Mtb MenB inh,Polio RdRp inh,Polio RdRp inh intensity,MbtI inh
C/C(=N\N(C)C)c1cc(Cl)cc(Cl)c1O,-15,111,115,-9
CC(C)(C)c1cc(CCC(=O)N2CCC2)cc(C(C)(C)C)c1O,-9,102,93,11
COC(=O)c1ccc(CSc2nnc3n(N)cnn23)cc1,-11,102,104,nt
CC(C)OC(=O)c1ccc(NC(=O)CSc2nc3ncccc3[nH]2)cc1,-6,103,103,-7
NC(=O)c1sc(-c2ccsc2)cc1NC(=O)c1cccs1,-23,102,106,87
COc1ccc(Cl)c2sc(N3CCN(C(=O)CS(=O)(=O)c4ccc(F)cc4)CC3)nc12,10,102,108,-1
NC(=O)N/N=C/c1coc2ccccc2c1=O,-17,102,103,6
Cc1ccc(/C=C/C(=O)NC2CCCc3ccccc32)o1 (configuration not stated),-14,108,111,75
CCC(C)C1N=C2c3ccccc3N=C(SCc3cc(=O)n4ccccc4n3)N2C1=O (configuration not stated),6,99,105,7
O=C(Cn1nnc(-c2ccccc2Cl)n1)N1CCN(S(=O)(=O)c2ccc(Cl)cc2)CC1,-3,95,87,-26
COc1ccc(NC2(C(N)=O)CCCCC2)cc1,nt,102,96,-7
CC(=O)Nc1ccc2c(c1)n(C)c(=O)n2C,8,101,104,-1

# Complete entries as entered above.
# Record of CCC(C)C1N=C2c3ccccc3N=C(SCc3cc(=O)n4ccccc4n3)N2C1=O (configuration not stated) → Mtb MenB inh: 6; Polio RdRp inh: 99; Polio RdRp inh intensity: 105; MbtI inh: 7
# Record of CC(=O)Nc1ccc2c(c1)n(C)c(=O)n2C → Mtb MenB inh: 8; Polio RdRp inh: 101; Polio RdRp inh intensity: 104; MbtI inh: -1

# New compounds follow
SMILES,Mtb MenB inh,Polio RdRp inh,Polio RdRp inh intensity,MbtI inh
COC(=O)C1(O)c2ccccc2-c2ccccc21,25,100,103,-2
Cc1ccccc1C(C#N)C(CC#N)c1ccccc1 (configuration not stated),-27,99,95,nt
Cc1ccc(N/N=C(/C#N)C(=N)N2CCCCCC2)cc1,-129,103,103,-11
S=C(NC1CCCC1)N1CCN(C/C=C/c2ccccc2)CC1,-39,101,105,-9
c1ccc(CCN2CCN(c3ccccc3)CC2)cc1,-7,100,104,-10
CCc1ccccc1NNC(N)=S,-16,101,102,22
Cc1cc(C)c2c(n1)nn1c(C)c(CCC(=O)NC3CCCC3)c(C)nc21,4,102,98,18
Cc1[nH]c2ccccc2c1C(Nc1cccc(C(F)(F)F)c1)c1ccccn1 (configuration not stated),12,99,103,4
COc1ccc(-c2n[nH]c(=S)n2C)cc1,6,110,102,12
CCNC(=O)CSCc1ccc(C)cc1,-22,97,102,6
Cc1cc(C)cc(C(=O)/C=C2\NC(=O)CS2)c1,-27,106,105,7
CC12CCC(=O)N1C(C(=O)OCC(=O)c1ccc(F)c(F)c1)CS2 (configuration not stated),-11,106,108,-26
O=C1Nc2ccccc2C(=O)C1(O)O,43*,103,99,-5
Cn1c(COc2ccc(Cl)cc2)nnc1SCC(=O)Nc1c(C#N)oc2ccccc12,-10,102,100,4
[O-][n+]1onc(-c2ccccc2)c1-c1ccccc1,-33,103,101,-15
CC1CCC2C(C)(CO)C(O)CCC2(C)C12CCC(C)(CO)O2 (configuration not stated),3,102,97,nt
Cc1ccc(S(=O)(=O)N2CCN(Cn3nc(Nc4ccccc4F)sc3=S)CC2)cc1,4,102,104,94*
O=c1ccc(-c2ccc(S(=O)(=O)NC3CCCCC3)s2)n[nH]1,-2,101,101,-13
CC(=O)Nc1ccc(/C(C)=N/NC2=NCCN2)cc1Br,-6,101,101,9
COCC(C)N1C(=O)Cc2c1nc(N)c1c(N)nc(N3CCN(c4ccccc4F)CC3)c(C#N)c21 (configuration not stated),-43,107,105,-345
CC(=O)N[C@@H](CSC/C=C(\C)CC/C=C(\C)CC/C=C(\C)CCC=C(C)C)C(=O)O,-7,101&100,101&100,-13
Oc1ccc(-c2nc3c4ccccc4ncn3n2)cc1,-26,99,93,-33
CC1C(C#N)=C(SCC#N)NC2=C1C(=O)CC(C)(C)C2 (configuration not stated),-47,99,103,26
CSc1nc(C)cc(Oc2ccc(=O)n(-c3ccccc3)n2)n1,-4,99,103,-1
COc1ccc(NC(=O)c2cc3ccccc3o2)cn1,-9,104,104,3
Cc1nn(C)c2nc(C(F)(F)F)cc(C(F)(F)F)c12,nt,103,107,-2
Cc1ccc(NC(=S)C(C#N)C(N)=O)cc1Cl (configuration not stated),-1,102,104,74*
Cc1cnc(C(=O)N(CC(=O)Nc2cccc(C)c2C)CC2CCCO2)cn1 (configuration not stated),-11,101,105,-5
Cc1noc(C)c1NC(=O)NCc1cc(F)cc2c1OCOC2,11,103,104,2
CC1=NN(c2ccc(C)cc2)C(=O)C1=C1SCCCS1,-9,104,110,-7
COCCn1c(=NC(=O)CN2C(=O)c3ccccc3C2=O)sc2ccccc21,-26,103,106,-4
Nc1c(C(=O)NCc2ccc3c(c2)OCO3)c2nc3ccccc3nc2n1C1CCCCC1,-23,103,95,-4
N#Cc1ccccc1OCC(=O)OCC(=O)NC1CCCCCC1,-18,95,104,-9
COc1ccccc1-c1ccc(=O)n(CC#N)n1,-16,98,90,12
CC(=O)N(C1=C(O)c2ccccc2C(=O)C1=O)C1CCCCC1,-43,98,97,2
Cc1nc(NCCc2ccccc2)c2c3c(sc2n1)CCCC3,-15,101,100,-5
c1ccc2c(c1)CCCC2NC1=NCCC1 (configuration not stated),-1,103,105,-10
Nn1cnc2ccccc21,14,104,99,3
CCCCN(C)C(=O)c1cc(-c2ccccc2)n[nH]1,-5,101,104,-11
O=C(OC1CCCC1=O)c1ccc(N2CCCC2=O)cc1 (configuration not stated),7,103,108,5
COC(=O)COc1ccc2c(=O)c(Oc3ccc(OC)cc3)coc2c1,-7,103,107,4
CN=c1scc(-c2ccc3c(c2)NC(=O)CO3)n1C,6,96,106,12
CN(Cc1nc2ccccc2n1C)C(=O)c1cccs1,-14,102,107,-6
CN(C)c1nc2n(c(=O)n1)CCN2C(=O)Nc1ccccc1,10,99,101,-4
NC(=O)CSc1ncc(CO)n1Cc1ccccc1,-18,102,103,-15
O=C(O)C(=O)/C=C(\O)c1ccc(Cl)cc1,-4,99,102,27
Cc1cc(C)cc(N=Cc2ccc(C#N)cc2)c1,-9,103,109,nt
COC(=O)CN1c2ccccc2S(=O)(=O)c2ccccc21,6,99,104,1
Cc1ccc(C)n1-c1ccccc1CN(C)C1CCCCC1,-10,104,103,-13
COc1ccc([S+]2CCCCC2)cc1,-175,105,107,nt
COc1ccccc1N1C(=O)C2CC=CC(C)C2C1=O (configuration not stated),4,101,102,-19
CC(=O)Nc1ccc(CN2CCN(C)CC2)cc1,-5,99,101,nt
c1ccc2c(c1)CCN(Cc1nc3ccccc3[nH]1)C2,-37,107,112,-27
CN1CCN(CCNC(=O)Cn2cccc2C(=O)c2ccccc2)CC1,-11,102,98,-4
CC(C)C(=O)N1C2=C(C(=O)c3ccccc32)C(c2ccc(Cl)cc2)c2c1n(C)c(=O)n(C)c2=O (configuration not stated),-5,101,105,1
CC[C@H]1[C@@H]2C=C[C@@H]3[C@H]4C/C=C\C(=O)NCCC[C@@H]5NC(=O)C(=C5O)C(=O)CC[C@@H]4C[C@@H]3[C@H]2C[C@H]1C,-5,101&100,103&102,-27
O=C(COC(=O)C1(c2ccc(F)cc2)CCCC1)N1CCOCC1,nt,101,104,-10
Cc1ccc(S(=O)(=O)N2CCN(C(=O)CSc3nccn3C)CC2)cc1,-29,99,94,-8
C=CCOc1nc(N2CCCCC2)nc(N2CCCCC2)n1,-1,103,104,-4
N[C@@H]1CONC1=O,4&5,99&100,101&101,-8&-9
# The results go on.
SMILES,Mtb MenB inh,Polio RdRp inh,Polio RdRp inh intensity,MbtI inh
O=S1(=O)CC(Sc2ccc(Cl)cc2)c2ccccc21 (configuration not stated),-6,104,102,-7
CCCN1Cc2cccc(C(N)=O)c2C1=O,3,102,104,-4
O=C(CN1CCC(N2CCCCC2)CC1)c1ccc2c(c1)OCCO2,30,97,105,4
O=C1C=C(Nc2ccccc2)C(=O)N1Cc1ccccc1,-12,101,103,4
CCCN1C(=O)C2ON(c3ccccc3)C(c3ccncc3)C2C1=O (configuration not stated),-8,nt,nt,-4
O=C(NCC1CCN(S(=O)(=O)c2ccccc2)CC1)Nc1ccccc1,5,103,101,-3
COc1ccc(C(=O)NC(CC(C)C)C(=O)O)cc1 (configuration not stated),-6,113,104,nt
COc1ccc(OC)c(-n2c(=S)[nH]c3cc(C(=O)Nc4ccc(C)c(Cl)c4)ccc3c2=O)c1,0,102,101,-13
CC(C)(C)C(=O)NCCc1c[nH]c2ccccc12,2,99,97,nt
O=C(NCC(=O)N1CCN(c2ccccc2)CC1)c1cccs1,-18,102,99,2
CSc1nnc2c(n1)OC(C)Nc1ccc(Br)cc1-2 (configuration not stated),-32,98,103,7
C=CCn1c(-c2ccc(OC)cc2)csc1=Nc1ccc(Br)cc1,-25,102,102,5

# 5 neighbouring entries from above, quoted:
SMILES,Mtb MenB inh,Polio RdRp inh,Polio RdRp inh intensity,MbtI inh
COc1ccc(OC)c(-n2c(=S)[nH]c3cc(C(=O)Nc4ccc(C)c(Cl)c4)ccc3c2=O)c1,0,102,101,-13
CC(C)(C)C(=O)NCCc1c[nH]c2ccccc12,2,99,97,nt
O=C(NCC(=O)N1CCN(c2ccccc2)CC1)c1cccs1,-18,102,99,2
CSc1nnc2c(n1)OC(C)Nc1ccc(Br)cc1-2 (configuration not stated),-32,98,103,7
C=CCn1c(-c2ccc(OC)cc2)csc1=Nc1ccc(Br)cc1,-25,102,102,5

# Continuation:
SMILES,Mtb MenB inh,Polio RdRp inh,Polio RdRp inh intensity,MbtI inh
COc1ccc(OC)c(C(O)C(C)N)c1 (configuration not stated),-8&-11,102&101,102&99,-9&1
O=C(/C=C/c1ccccc1)Nc1ccc(-c2nnc(-c3ccco3)o2)cc1,-17,98,102,77
COc1cc(OC)cc(C(=O)OC(C)C(=O)NC2CCCCC2)c1 (configuration not stated),-18,103,104,-18
Cc1csc2nc(CN(C)Cc3ccccc3)cc(=O)n12,-28,103,105,119
COc1ccc2cc(CCC(C)=O)ccc2c1,-4&8,101&100,99&104,-14&-9
C=CCOc1cccc(-c2nc(-c3ccccn3)no2)c1,-2,101,101,-35
O=C(Cn1ncc(Cl)c(Cl)c1=O)N(C1=CCCCC1)C1CC1,-8,91,96,-1
O=C(/C=C/c1ccco1)OCc1ccc(Br)cc1,-1,103,106,28
O=C(CO/N=C/c1cccc(Oc2ccccc2)c1)N1CCN(C(=O)c2ccco2)CC1,-31,nt,nt,4
O=C(CC1NCCNC1=O)NCCc1ccccc1 (configuration not stated),-19,104,102,-16
CN1C(=O)CSC1=NC12CC3CC(CC(C3)C1)C2,-64,102,101,-4
CCCOc1ccc(C(=O)NCC(C)(C)N2CCOCC2)cc1,4,98,107,-2
CCCCc1ccc(NC(=O)Nc2cc(C(C)(C)C)nn2C)cc1,-9,103,102,-3
O=S(=O)(Nc1ccc2c(c1)OC1(CCCCC1)O2)c1ccc2ccccc2c1,-17,107,114,nt
CC(C)(C)c1ccc(OCCCC(=O)O)cc1,nt,96,99,-12
c1ccc(SCc2cn3ccsc3n2)cc1,nt,101,100,-7
Cn1c(=O)c2[nH]c(-c3ccc(OCC(=O)NCc4ccccc4)cc3)nc2n(C)c1=O,-25,100,100,52
Cc1cccc(C(=O)N2CCN(S(=O)(=O)N3CCCCC3)CC2)c1,-3,101,99,-19
CC(C)C(=O)Nc1ccc([N+](=O)[O-])c(C(F)(F)F)c1,-4&0,100&101,100&102,18&-1
CC(=O)Nc1cccs1,-9,98,101,-4
C(CN1CCOCC1)NC1CC2CCC1C2 (configuration not stated),-19,103,102,-10
Nn1c(SCCCSc2nnc(C(F)(F)F)n2N)nnc1C(F)(F)F,-20,103,109,6
CCCCC(=O)Nc1cc(-c2nc3cc(C(C)C)ccc3o2)ccc1OC,-13,102,104,-43
NS(=O)(=O)c1ccc(NC(=O)CN2CCCC2)cc1,-9,103,101,4
Cc1nc2ccc(NC(=O)C(C)(C)C(=O)Nc3ccc4nc(C)c(C)nc4c3)cc2nc1C,2,102,108,nt
Cc1ccc(NS(=O)(=O)c2cccc(C(=O)Nc3ccccc3)c2)cc1,6,101,106,-1
C[C@H](N=C1NS(=O)(=O)c2ccccc21)C(=O)OCC(=O)N1CCC(c2ccccc2)=N1,6,102,106,16
N#Cc1cc(C(=O)O)c(=O)[nH]c1SCc1ccccc1Cl,-10,98,94,-86
COc1ccccc1NC(=O)NNc1c(C)cc(C)cc1C,-7,106,100,-7
CCOC(=O)N1CCC(NC(=O)C2c3ccccc3C(=O)N(C)C2c2cn(C)c3ccccc23)CC1 (configuration not stated),8,100,102,4
CCOc1ccc2cc(C3CC(c4ccco4)=NN3S(=O)(=O)c3ccccc3)c(Cl)nc2c1 (configuration not stated),-6,104,98,40
Cc1ccc2onc(CC(=O)NCCN3CCN(C)CC3)c2c1,-21,106,107,-10
NC(=O)c1c(O)sc2c1CCCC2,-42,111,131,66
O=C(CBr)Nc1cccc(C(F)(F)F)c1,nt,103,97,25
O=C(N/C=C/c1ccsc1)Nc1ccccc1C(F)(F)F,-2,100,106,4
Cc1ccc(Cn2ccc(NC(=O)c3noc4c3CCc3ccccc3-4)n2)cc1,-41,104,105,-3
O=C(Nc1cccnc1)c1ccc(COc2ccccc2Br)cc1,-23,102,105,nt
Cc1ccc2c(CN3CCN(CC#N)CC3)cc(=O)oc2c1,12,101,104,-7

# Source: PubChem BioAssay (ICCB-Longwood Screening Facility, Harvard Medical School)

# Rows were taken by chance (roughly 1.8% active in at least one column).
